# aSyn UTR inh: MLPCN primary screen, SNCA 5' untranslated region; alpha-synuclein 5'UTR reporter, inhibitor activity; inhibition, % (tested at 7.5 µM); actives 0.82% (n = 300,000); AID 1813; in the data active = inhibition above about 60%;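 note: H4 neuroglioblastoma cells stably carrying SNCA 5'UTR luciferase fusion; 0% = DMSO wells and 100% = positive control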
# HSF1 inhib: HSF1 inhibition; activity change, negative = inhibition, % at 7.5 µM (by protocol); NIH3T3-HGL HSE-luciferase, MG132-induced, luminescence 8 h; active compounds read low; actives 0.77% (n = 300,000);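 active = more than half of replicate wells show activity change below -50%, luminescence cut by over half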;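 note: luciferase reports HSF-1 transcriptional activity via heat shock element; 0% = median of DMSO wells and -100% = zero luminescence signal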
# KLF5 inhibitor: inhibitors of KLF5 expression. inhibition, % at 5 µM. actives 0.23% (n = 290,000). AID 1700. DLD-1 KLF5 promoter-luciferase reporter, luminescence;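 active = inhibition above a per-plate limit of that plate's mean compound inhibition plus 3 SD, cut at about 60% in these data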;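 note: 0% = DMSO wells and 100% = LY294002 at 200 µM; higher means less KLF5 promoter-driven luciferase light; inactives centre near -14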
# GSK3B inh: inhibitors of human GSK3beta kinase | activity score (negative = inhibition), % at 10 µM | GST-GSK3beta kinase, ADP-Glo luminescence, 60 min; active compounds read low | actives 0.038% (n = 300,000) | P49841;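 active = more than half of replicate wells score below -50%, meaning over 50% inhibition versus plate controls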;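 note: 0% = median DMSO wells and -100% = median GW8510 positive control wells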
#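 Test system: GST-tagged human GSK3beta kinase, cell-free; evaluation: activity score scaled between in-plate DMSO and GW8510 controls; measured by: ADP-Glo luminescence; incubation: 60 min reaction, RT; benchmarks: DMSO and 20 µM GW8510; reagent: peptide substrate plus 25 µM ATP (final); medium: Tris/MgCl2 kinase buffer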
# HSF1 activator: increases HSF-1 driven luciferase reporter signal | actives 1.7% (n = 300,000) | NIH3T3-HGL HSF-1 luciferase reporter, MG132, 8 h; 100% = twice DMSO control signal | activation, % at 9 µM | AID 504408;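 active = mean replicate activation of at least 50% with a set share of replicates each reaching 50%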;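 note: 0% = median of the neutral control wells and 100% = twice that signal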
# IEC-6 tox: counter-screen for KLF5 inhibitors: cytotoxicity in IEC-6 cells; IEC-6 cytotoxicity, luminescence viability; inhibition, % at 5 µM; actives 0.78% (n = 290,000); in the data active = inhibition above about 22%;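 note: 0% = plate median of test compound wells and 100% = cytotoxic reference compound wells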
# GSK3 alpha inh: blocks human GSK-3 alpha kinase | P49840 | ADP-Glo luminescence, 60 min | inhibition, % at 10 µM | actives 0.1% (n = 320,000) | AID 2650;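 in the data active = inhibition above about 50%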;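 note: GST-tagged GSK-3 alpha with peptide substrate and 25 µM ATP; 0% = DMSO neutral wells and 100% = GW8510 positive control wells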
# Target sequence (P49840 whole entry, looked up): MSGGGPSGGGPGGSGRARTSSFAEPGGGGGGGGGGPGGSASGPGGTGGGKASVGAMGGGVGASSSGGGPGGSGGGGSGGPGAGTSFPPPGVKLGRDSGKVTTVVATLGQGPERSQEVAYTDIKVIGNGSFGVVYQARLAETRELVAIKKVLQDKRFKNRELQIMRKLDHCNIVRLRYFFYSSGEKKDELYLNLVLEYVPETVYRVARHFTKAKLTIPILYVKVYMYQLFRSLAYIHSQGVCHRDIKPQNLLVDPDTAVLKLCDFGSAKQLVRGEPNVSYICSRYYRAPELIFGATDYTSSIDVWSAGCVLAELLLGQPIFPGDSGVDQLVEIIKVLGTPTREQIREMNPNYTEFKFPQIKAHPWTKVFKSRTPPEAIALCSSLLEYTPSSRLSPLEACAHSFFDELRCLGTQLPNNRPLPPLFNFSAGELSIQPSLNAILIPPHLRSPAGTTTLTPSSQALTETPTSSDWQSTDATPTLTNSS
# AI-2 QS mod: Vibrio harveyi AI-2 quorum sensing modulation | Vibrio harveyi JMH597 AI-2 luminescence/OD600 ratio, 9 h; active compounds read low; strain lacks LuxN and CqsS sensors; 0 = neutral-control median | activity change, % at 7.5 µM | actives 0.4% (n = 300,000) | AID 2094; in the data active = activity change below about -75%, passing the limit was not always enough;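 note: luminescence divided by OD600 gain over 9 h not by final OD600 alone; inactives centre near 13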
# HSP90 refold inh: inhibitors of HSP90 luciferase refolding in rabbit reticulocyte lysate; luciferase refolding luminescence, 3 h; actives 0.91% (n = 290,000); inhibition, % at 5.6 µM;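 active = inhibition above the screen-wide mean plus 3 SD, computed separately per campaign, cut at about 16% in these data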;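 note: 0% = DMSO wells and 100% = 60 µM geldanamycin wells; inhibitors lower the luminescence because luciferase stays unfolded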
# The depositor's hits bear a star; . = not tested or not shown. This is a subset; rates above refer to the full screens.
SMILES,aSyn UTR inh,HSF1 inhib,KLF5 inhibitor,GSK3B inh,HSF1 activator,IEC-6 tox,GSK3 alpha inh,AI-2 QS mod,HSP90 refold inh
COCCCn1c2nc3ccccc3nc2c2c(=O)n(CC3CCCO3)cnc21 (stereo unspecified),4,-6,-5,0,12,0,2,24,0
CCN(CC)CCCN1C(=O)C(=O)/C(=C(/O)c2ccc(OC)cc2)C1c1ccco1 (stereo unspecified),-58,-3,.,-1,17,.,-1,23,.
O=C(O)c1ccc(C2CCCCC2)cn1,-8,0,6,2,-2,14,-1,32,4
Cc1ccc2[nH]c3c(c2c1)CN(C(=O)CN1CCN(c2ccccn2)CC1)CC3,5,0,-14,0,16,0,2,0,0
COCCNc1nc2c(c(=O)n(C)c(=O)n2C)n1Cc1cccc(C(F)(F)F)c1,2,-2,-59,1,-6,-6,2,8,-2
Nc1c2c(nc3ccccc13)N(c1ccccc1)CC2,-53,-53*,.,1,-61,.,1,17,.
CN(C)c1ccc(C=NCC2(O)CCOC(C)(C)C2)cc1 (stereo unspecified),2,-22,-5,1,-36,1,-2,10,-2
CC1(C)SC2[C@H](NC(=O)C(NC(=O)N3CCNC3=O)c3ccccc3)C(=O)N2C1C(=O)O (stereo partly specified),.,.,-3,.,.,5,.,.,1
Cn1cc(C(=O)NCN2CCCCC2)c2ccccc21,-2,-2,-2,-2,-4,-1,9,13,3
CCCCOc1ccc(C2CC(=O)N(C)C2=O)cc1 (stereo unspecified),-28,6,-52,0,4,-6,0,19,-1
c1ccc(OCc2nn3c(-c4cccnc4)nnc3s2)cc1,-5,-10,8,3,-7,4,-1,19,3
O=C(O)C(Cc1ccccc1-c1ccccc1)C(=O)O,-4,-5,-11,5,7,-1,-5,4,-2
CC(=O)SCC[N+](C)(C)C,6,2,.,5,-14,.,-1,7,.
COc1ccc(-n2ncc3c(N4CCC(C(N)=O)CC4)ncnc32)cc1,-124,-6,-76,-1,-16,-6,-2,36,-5
O=S(=O)(c1ccccc1)N(CC(O)CN1CCCCC1)c1ccccc1 (stereo unspecified),-14,0,-19,2,13,6,-3,10,0
COCc1cc(=O)[nH]c(Nc2nc3ccc(C)cc3o2)n1,16,171,-58,2,210*,26*,1,15,-1
COc1cc(Cn2ccnc2)c(OC)cc1Cn1ccnc1,-41,-3,-10,-3,-4,2,2,23,-2
C[C@@H]1C[C@H](Nc2ccccc2)c2ccccc2N1C(=O)c1cccnc1,-13,-5,11,5,-3,-6,1,24,0
N#Cc1nc(COc2ccccc2Cl)oc1NCc1ccc(F)cc1,-10,2,3,0,19,0,.,11,2
COc1ccccc1NC(=O)c1c(C)cc(=O)oc1C,13,-2,11,3,4,2,-3,14,3
Cc1cc(C(=O)O)c(CSc2ncn[nH]2)o1,-6,-1,-31,-1,-8,-2,-1,4,-1
O=C(O)CC(C(=O)OCCOc1ccccc1)N1CCOCC1 (stereo unspecified),3,-6,-11,1,4,-10,1,30,-1
O=C(NCCN1CCOCC1)c1ccc(=O)oc1,23,-1,-15,1,17,2,0,14,0
O=C1CCC(=O)N1c1nc2n(n1)C(c1ccccc1)C=C(c1ccc(Br)cc1)N2 (stereo unspecified),17,-1,12,-1,0,-3,-1,25,0

# In a second layout: six of the compounds above
smiles	aSyn UTR inh	HSF1 inhib	KLF5 inhibitor	GSK3B inh	HSF1 activator	IEC-6 tox	GSK3 alpha inh	AI-2 QS mod	HSP90 refold inh
C[C@@H]1C[C@H](Nc2ccccc2)c2ccccc2N1C(=O)c1cccnc1	-13	-5	11	5	-3	-6	1	24	0
N#Cc1nc(COc2ccccc2Cl)oc1NCc1ccc(F)cc1	-10	2	3	0	19	0	.	11	2
COc1ccccc1NC(=O)c1c(C)cc(=O)oc1C	13	-2	11	3	4	2	-3	14	3
Cc1cc(C(=O)O)c(CSc2ncn[nH]2)o1	-6	-1	-31	-1	-8	-2	-1	4	-1
O=C(O)CC(C(=O)OCCOc1ccccc1)N1CCOCC1 (stereo unspecified)	3	-6	-11	1	4	-10	1	30	-1
O=C(NCCN1CCOCC1)c1ccc(=O)oc1	23	-1	-15	1	17	2	0	14	0

# (further entries)
SMILES,aSyn UTR inh,HSF1 inhib,KLF5 inhibitor,GSK3B inh,HSF1 activator,IEC-6 tox,GSK3 alpha inh,AI-2 QS mod,HSP90 refold inh
CCOC(=O)c1[nH]c2cc3c(cc2c1NC(=O)CN1CCC(C)CC1)OCO3,-17,-7,-8,-2,-6,2,-1,38,3
Cc1cc(=O)oc(C)c1C(=O)N1CCN(C)CC1,23,-5,-16,4,1,-2,-2,11,2
Cc1cc(C)nc(Nc2ncc(O)n2-c2ccccc2)n1,0,1,-5,2,14,2,2,9,0
Cc1cccc(OCC(=O)N2CCC(N3CCCCCC3)CC2)c1,-20,-2,0,3,5,-6,-1,48,5
COC(=O)COn1c(SCC(=O)OC)nc2ccccc2c1=O,-1,-7,-38,-1,-18,-1,5,16,4
CC(C)Cc1nc(N2CCOCC2)c(C#N)c2c1COC(C)(C)C2,24,-3,-14,-2,-4,-3,0,24,0

# Filtered by structure, those above containing fluorine
SMILES,aSyn UTR inh,HSF1 inhib,KLF5 inhibitor,GSK3B inh,HSF1 activator,IEC-6 tox,GSK3 alpha inh,AI-2 QS mod,HSP90 refold inh
COCCNc1nc2c(c(=O)n(C)c(=O)n2C)n1Cc1cccc(C(F)(F)F)c1,2,-2,-59,1,-6,-6,2,8,-2
N#Cc1nc(COc2ccccc2Cl)oc1NCc1ccc(F)cc1,-10,2,3,0,19,0,.,11,2

# Some entries already given, limited to HSF1 activator and IEC-6 tox.
molecule,HSF1 activator,IEC-6 tox
Cc1cccc(OCC(=O)N2CCC(N3CCCCCC3)CC2)c1,5,-6
Cc1cc(=O)oc(C)c1C(=O)N1CCN(C)CC1,1,-2
